RE007 growth inh: qHTS Assay for Inhibitors of the HIV-1 protein Vpr. S. pombe RE007 Vpr strain, BacTiter-Glo ATP luminescence, 24 h; control for the full effect not named in the record. Potency, µM (doses to about 92.2 µM), for inactives: at the top dose activity change, negative = less growth. 360,000 tested, 0.21% active; active = well fitted falling curve with a large enough effect; inconclusive = small, poorly fitted or top-dose-only effect; inactive = no such curve, though single readings can be large or run the other way;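 note: % is set by controls: 0 for no effect and ±100 for the full control effect; nearly all actives have a fitted effect of over 50% in size; the assay follows cell death caused by Vpr and the record does not say whether a fall means rescue or toxicity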
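Fission yeast RE007 carrying one integrated HIV-1 vpr copy, seeded at OD 0.01 in PMG+AL medium with 23 nL pinned compound. Grown 24 h at 30 degrees; viability read by BacTiter-Glo luminescence after 5 min.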
SARS PLpro yeast: qHTS of Yeast-based Assay for SARS-CoV PLP | Potency, µM (titrated, usually from 32.9 µM), without a hit: top-dose activity, positive = growth rescue | 330,000 tested, 0.19% active | S. cerevisiae expressing SARS-CoV PLpro, growth rescue; control for the full effect not named in the record; active means well fitted rising curve with a large enough effect; inconclusive means small, poorly fitted or top-dose-only effect; inactive means no such curve, though single readings can be large or run the other way; note: 0% is about no effect; nearly all actives have a fitted effect of over 55% in size; growth read by luminescence after 48 h
Marburg entry inh: qHTS for inhibitors of binding or entry into cells for Marburg Virus | Potency, µM (doses to about 37.8 µM), for inactives: at the highest dose activity change, negative = inhibition, usual class: inhibitors | 300,000 tested, 1.8% active | Marburg virus pseudotyped entry inhibition, cell reporter; control for the full effect not named in the record; about a third of the inactives were read at about 46 µM | AID 540276, 2011; active = well fitted inhibition curve with a large enough effect; inconclusive = small, poorly fitted or top-dose-only effect, or effect the other way; inactive = flat fitted curve, though single readings scatter; tested in HEK293 cells; about a fifth of its hits are not listed in these tables; note: % is set by controls: 0 for no effect and ±100 for the full control effect; luciferase read-out
Cruzain Triton: qHTS Assay for Promiscuous and Specific Inhibitors of Cruzain (with detergent) | Cruzipain (Trypanosoma cruzi), P25779 | purified cruzain, Z-FR-AMC fluorescence, 0.01% Triton | Potency, µM, without a hit: max response, negative = inhibition, hits mostly inhibitors | 200,000 tested, 0.43% active;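 note: plate controls were neutral wells for no effect and buffer without enzyme for full effect; nearly all actives have a fitted effect of over 40% in size; top concentration of the series not given in the record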
Target sequence (P25779 123-467 limits assumed): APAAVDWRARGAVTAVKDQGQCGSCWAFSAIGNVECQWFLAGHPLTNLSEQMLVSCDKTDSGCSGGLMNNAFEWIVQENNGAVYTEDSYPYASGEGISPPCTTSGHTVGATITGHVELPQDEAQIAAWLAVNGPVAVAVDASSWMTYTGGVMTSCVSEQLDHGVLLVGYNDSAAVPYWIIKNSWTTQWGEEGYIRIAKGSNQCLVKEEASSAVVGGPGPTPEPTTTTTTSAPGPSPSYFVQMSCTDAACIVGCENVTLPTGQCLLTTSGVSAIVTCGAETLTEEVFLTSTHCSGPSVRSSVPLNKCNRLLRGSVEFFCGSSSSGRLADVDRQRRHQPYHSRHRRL
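Cruzain (1.5 nM) preincubated 15 min at RT with compound in 100 mM sodium acetate pH 5.5, 5 mM DTT, 0.01% Triton X-100. Reaction started with 2 uM Z-FR-AMC; AMC fluorescence (ex 360/em 450 nm) change over 60 s gave rate.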
2A StopGo: High Throughput Screening for Foot and Mouth Disease Virus Antivirals. human cells with a luciferase reporter of 2A StopGo recoding; control for the full effect not named in the record. Potency, µM (series often up to 57.9 µM), inactives show at the top dose signal change, negative = less light. 410,000 tested, 1.2% active. AID 1159524, 2015; active = well fitted falling curve with a large enough effect; inconclusive = small, poorly fitted or top-dose-only effect; inactive = no such curve, though single readings can be large or run the other way; tested in HEK293T cells; note: % is set by controls: 0 for no effect and ±100 for the full control effect; nearly all actives have a fitted effect of over 45% in size; luciferase light after 4 h
LASV entry inh: qHTS for Inhibitors of binding or entry into cells for Lassa Virus | Lassa virus pseudotype entry inhibition, cell reporter; control for the full effect not named in the record | 300,000 tested, 1.2% active | Potency, µM (doses to about 37.9 µM), for the others: at the top dose activity change, negative = inhibition, usual class: inhibitors | AID 540256, 2011; active means well fitted inhibition curve with a large enough effect; inconclusive means small, poorly fitted or top-dose-only effect, or effect the other way; inactive means flat fitted curve, though single readings scatter; tested in HEK293 cells; note: % is set by controls: 0 for no effect and ±100 for the full control effect; nearly all actives have a fitted effect of over 50% in size; luciferase read-out
Cruzain noTriton: qHTS Assay for Promiscuous and Specific Inhibitors of Cruzain (without detergent); purified cruzain, Z-FR-AMC fluorescence, no detergent; Potency, µM, inactives show max response, negative = inhibition, most hits filed as inhibitors; 200,000 tested, 2.3% active; AID 1476, 2009;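 note: plate controls were enzyme without inhibitor for no effect and buffer without enzyme for full effect; nearly all actives have a fitted effect of over 40% in size; top concentration of the series not given in the record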
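Purified cruzain at 1.5 nM, pre-incubated 15 min with compound at room temperature in 100 mM sodium acetate pH 5.5, 5 mM DTT, 0.00005% Triton X-100. Reaction started with 2 uM Z-FR-AMC; AMC fluorescence increase over 60 s gives rate.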
NS1 inh: qHTS Assay for Inhibitors of Influenza NS1 Protein Function; AID 2326, 2010; 270,000 tested, 0.4% active; Potency, µM (top dose mostly 46.1 µM), without a hit: top-dose activity, positive = more growth; S. cerevisiae slowed by influenza A NS1, growth recovery by OD600; active means well fitted rising curve with a large enough effect; inconclusive means small, poorly fitted or top-dose-only effect; inactive means no such curve, though single readings can be large or run the other way; note: nearly all actives have a fitted effect of over 50% in size
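Recovery from NS1-induced slow growth read by OD600 in budding yeast switched to galactose assay medium (pH 6.0, -URA) at 1:100 dilution. Compound 23 nl per well; the matching strain lacking NS1 serves as control.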
* = called active by the depositor; ? = inconclusive; . = not tested or not shown; & = joins results of further samples; [ ] = dose if it differs, or a comment. Unless noted, calls come from the whole dose curve; as a rule, active = well fitted curve in the direction sought with a large enough effect; inconclusive = small, poorly fitted or top-dose-only effect, or another doubt; inactive = no such curve, though single readings can be large; an effect the other way counts as inactive or inconclusive. Potency is the fitted concentration of half-maximal effect.

1	COC(=O)COc1ccc(S(=O)(=O)Nc2ccc(C(N)=O)cc2)cc1
2	Cc1csc(NC(=O)CSc2nnc(-c3ccncc3)n2C)n1
3	O=C(c1cc(-c2ccncc2)nc2ccc(Br)cc12)N1CCN(c2ccccn2)CC1
4	COc1ccccc1N1CCN(C(=O)c2ccc(S(=O)(=O)N3CCCCCC3)cc2)CC1
5	CN1CCN(c2ccc(CNS(=O)(=O)c3ccsc3)cc2)CC1
6	Cc1c(N(CC(=O)O)S(=O)(=O)c2ccccc2)c(=O)n(-c2ccccc2)n1C
7	CCn1cc(C(=O)OCC(=O)N2C(C)CCCC2C)c(=O)c2ccc(C)nc21 (stereo unspecified)
8	O=C(Nn1c(C2CCCCC2)nc2ccccc2c1=O)c1ccc([N+](=O)[O-])cc1

| entry no. | 1 | 2 | 3 | 4 | 5 | 6 | 7 | 8 |
| --- | --- | --- | --- | --- | --- | --- | --- | --- |
| RE007 growth inh | -4% | 1% | -28% | 5% | 0% | -24% | -8% | -16% |
| SARS PLpro yeast | 2% | 4% | . | -4% | -1% | 1% | -3% | -10% |
| Marburg entry inh | 17% | 2% | 5.6µM* | -26%&-26% | . | -2%[46.1 µM] | -3% | ? |
| Cruzain Triton | 3.9% | 1.1% | -4.6% | -2.2% | . | . | . | -5.4% |
| 2A StopGo | -12% | -6% | ? | ? | 9% | 5% | 0% | -15% |
| LASV entry inh | 10% | 6% | ? | 1% | . | 29% | 1% | -6% |
| Cruzain noTriton | -1% | 13% | ? | ? | . | . | . | -3% |
| NS1 inh | 1% | -4% | -88% | -32% | 5% | 4% | . | -15% |

3 successive entries already listed, for reference:
6	Cc1c(N(CC(=O)O)S(=O)(=O)c2ccccc2)c(=O)n(-c2ccccc2)n1C
7	CCn1cc(C(=O)OCC(=O)N2C(C)CCCC2C)c(=O)c2ccc(C)nc21 (stereo unspecified)
8	O=C(Nn1c(C2CCCCC2)nc2ccccc2c1=O)c1ccc([N+](=O)[O-])cc1

| entry no. | 6 | 7 | 8 |
| --- | --- | --- | --- |
| RE007 growth inh | -24% | -8% | -16% |
| SARS PLpro yeast | 1% | -3% | -10% |
| Marburg entry inh | -2%[46.1 µM] | -3% | ? |
| Cruzain Triton | . | . | -5.4% |
| 2A StopGo | 5% | 0% | -15% |
| LASV entry inh | 29% | 1% | -6% |
| Cruzain noTriton | . | . | -3% |
| NS1 inh | 4% | . | -15% |

Continued.
9	COc1ccc2cc3cc(C(=O)N4CCN(c5ccc(C(C)=O)cc5)CC4)sc3nc2c1Cl
10	CC1CCCC(C)N1/N=C/c1ccccc1C(=O)O (stereo unspecified)
11	CSc1ccc(CN(C)CC(=O)Nc2cccc(Br)c2)cc1
12	Cc1nn(C(C)C(=O)NCc2ccco2)c(C)c1[N+](=O)[O-] (stereo unspecified)
13	CC1CN(CCc2ccccc2)CC(C)O1 (stereo unspecified)
14	COc1ccc(-c2nnc(SCC(=O)c3ccc(O)cc3O)o2)cc1
15	CO/N=C/c1cccn1-c1nccc(N(C)C)c1C#N
16	COc1cccc(NC(=O)COC(=O)c2ccc(S(=O)(=O)NCc3ccco3)cc2)c1

| entry no. | 9 | 10 | 11 | 12 | 13 | 14 | 15 | 16 |
| --- | --- | --- | --- | --- | --- | --- | --- | --- |
| RE007 growth inh | . | 3% | -15% | 11% | 8% | -6% | 1% | -23% |
| SARS PLpro yeast | . | 5% | -11% | -2% | 2% | 9% | 2% | 5% |
| Marburg entry inh | . | -17%[46.1 µM] | -1% | . | 15% | 25%[46.1 µM] | 2%[46.1 µM] | 23% |
| Cruzain Triton | 0.6% | . | -11% | . | 3.9% | . | . | -2.6% |
| 2A StopGo | 9% | -8% | ? | -20% | . | 59%[activator] | 7% | -21% |
| LASV entry inh | 0%[46.1 µM] | 9% | -5% | . | 7% | 28% | 4%[46.1 µM] | 21% |
| Cruzain noTriton | -4% | . | -2% | . | 12% | . | . | -10% |
| NS1 inh | . | 4% | 14% | 2% | 8% | -5% | 4% | 10% |

Brought forward from above: 2 entries, followed by the next part.
15	CO/N=C/c1cccn1-c1nccc(N(C)C)c1C#N
16	COc1cccc(NC(=O)COC(=O)c2ccc(S(=O)(=O)NCc3ccco3)cc2)c1
17	COc1ccc(OC)c(NC(=O)CCN2CCCCC2)c1
18	CC(Sc1ccc2c(c1)OCCO2)C(=O)Nc1ncc(Cl)cc1Cl (stereo unspecified)
19	c1ccc(C2CC3CC(c4ccccc4)N2O3)cc1 (stereo unspecified)
20	CC(C)(C)c1ccc(OCCCC(=O)NC2=NCCS2)cc1
21	COc1cccc(N(CC(=O)Nc2cccc(N(C)S(C)(=O)=O)c2)S(C)(=O)=O)c1
22	O=C(CN1CCN(CCN2C(=O)c3cccc4cccc(c34)C2=O)CC1)c1ccc(F)cc1
23	CN(Cc1ccn[nH]1)C(=O)C1CCC(=O)N(Cc2cccc(C(F)(F)F)c2)C1 (stereo unspecified)
24	O=C(NCCCN1CCc2ccccc2C1)C1CCN(c2nnc(-n3cccc3)s2)CC1

| entry no. | 15 | 16 | 17 | 18 | 19 | 20 | 21 | 22 | 23 | 24 |
| --- | --- | --- | --- | --- | --- | --- | --- | --- | --- | --- |
| RE007 growth inh | 1% | -23% | -6% | 18% | -9% | ? | 0% | -20% | -8% | -4% |
| SARS PLpro yeast | 2% | 5% | -3% | 3% | . | -39% | -4% | -13% | -9% | 2% |
| Marburg entry inh | 2%[46.1 µM] | 23% | 22% | -13% | 19% | ? | -20% | -10% | . | 15µM* |
| Cruzain Triton | . | -2.6% | 1.9% | 0.0% | . | 1.3% | 0.8% | -28% | . | 25µM* |
| 2A StopGo | 7% | -21% | 10% | -15% | -19% | -13% | -29% | 28% | -2% | -30% |
| LASV entry inh | 4%[46.1 µM] | 21% | 3% | 3% | -11% | ? | 9% | -2% | . | 6% |
| Cruzain noTriton | . | -10% | -3% | -5% | . | -8% | -5% | ? | . | -24% |
| NS1 inh | 4% | 10% | 2% | -8% | . | -123% | -6% | 16% | -1% | ? |

25	O=C1c2ccccc2S(=O)(=O)N1CC(O)COc1ccc(Cl)cc1 (stereo unspecified)
26	COc1ccc(CCNS(=O)(=O)c2ccc(Cl)s2)cc1OC
27	CCc1nn(C(C)C(=O)Nc2cccc(C)c2C)c(=O)c2cc3occc3n12 (stereo unspecified)
28	COc1ccc(CCNC(=O)c2nnc(Cc3ccc(Cl)cc3)o2)cc1OC
29	O=c1[nH]c2cc(Cl)ccc2c(O)c1-c1cccc(Oc2ccccc2)c1
30	CCN(CC)S(=O)(=O)c1ccc(C)c(NC(=O)/C=C/c2cccs2)c1
31	O=C(O)CCNC(=O)/C(=C/c1ccco1)NC(=O)c1ccco1
32	O=S(=O)(c1ccccc1)N(CC1CO1)c1cccc2ccccc12 (stereo unspecified)

| entry no. | 25 | 26 | 27 | 28 | 29 | 30 | 31 | 32 |
| --- | --- | --- | --- | --- | --- | --- | --- | --- |
| RE007 growth inh | -15% | -16% | 7% | -5% | -6%[18.4 µM] | . | -3% | -4% |
| SARS PLpro yeast | ? | 3% | 9% | 1% | . | 16% | 7% | 1% |
| Marburg entry inh | ? | 8% | -24% | 2%[46.1 µM] | . | ? | . | ? |
| Cruzain Triton | -5.3% | 1.8% | -3.8% | -3.0%&0.0% | 5.5% | -7.2% | . | . |
| 2A StopGo | 0% | -8% | 2% | ? | -9%&10% | ? | -3% | -6% |
| LASV entry inh | 7% | ? | 2% | -2%[46.1 µM] | . | ? | . | ? |
| Cruzain noTriton | 3% | -9% | -8% | 5%&2% | 3.2µM* | -3% | . | . |
| NS1 inh | -66% | -21% | -13% | -8% | . | -40% | 9% | 4% |

Whole records as entered above. Screens in order: RE007 growth inh, SARS PLpro yeast, Marburg entry inh, Cruzain Triton, 2A StopGo, LASV entry inh, Cruzain noTriton, NS1 inh
`COc1ccc(CCNS(=O)(=O)c2ccc(Cl)s2)cc1OC` is listed with -16%, 3%, 8%, 1.8%, -8%, ?, -9%, -21%
`CCc1nn(C(C)C(=O)Nc2cccc(C)c2C)c(=O)c2cc3occc3n12` (stereo unspecified) is listed with 7%, 9%, -24%, -3.8%, 2%, 2%, -8%, -13%
`O=S(=O)(c1ccccc1)N(CC1CO1)c1cccc2ccccc12` (stereo unspecified) is listed with -4%, 1%, ?, ., -6%, ?, ., 4%
`O=C1c2ccccc2S(=O)(=O)N1CC(O)COc1ccc(Cl)cc1` (stereo unspecified) is listed with -15%, ?, ?, -5.3%, 0%, 7%, 3%, -66%

(listing goes on)
33	Cc1ccc(C)c(N(CC(=O)NCCc2ccccc2)C(=O)CCC(=O)Nc2ccccn2)c1
34	Cc1ccc(OCC(=O)Nc2nnc(S(=O)(=O)N3CCCCCC3)s2)cc1
35	CN(C)C(=O)CSc1nc(-c2ccccc2)c(-c2ccccc2)o1
36	Cc1cccc2nc(-c3cccnc3)c(Nc3ccc(C(C)C)cc3)n12

| entry no. | 33 | 34 | 35 | 36 |
| --- | --- | --- | --- | --- |
| RE007 growth inh | -20% | 6% | 11% | . |
| SARS PLpro yeast | 0% | 5% | 0% | . |
| Marburg entry inh | -7%[46.1 µM] | . | ? | ? |
| Cruzain Triton | . | -3.5% | . | -8.1% |
| 2A StopGo | 15% | -18%&-6% | -9% | 28µM* |
| LASV entry inh | . | ? | -22% | ? |
| Cruzain noTriton | . | 1% | . | 2% |
| NS1 inh | -8% | 14% | -4% | . |

No enrichment for hits. Share with any hit: about 4.7%.
